# Source: PubChem BioAssay
# VCAM-1 up = boosters of cytokine-driven VCAM-1 levels – cell-based, plate reader, pooled HUVEC, TNFa stimulus (AID 455). HUVEC TNFa-induced VCAM-1 immunofluorescence, plate reader; numbers were filed only for top-ranked candidate wells. 10,000 compounds, 0.2% hits. augmentation, % at 5 µM;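 active = a compound raising TNF-alpha-driven VCAM-1 surface staining, with its hit status upheld on visual or statistical review; inactive = the rest, including hits rejected on review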;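 note: 0% = TNFa with vehicle and 100% = strongest image-checked hit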
# Proteasome disasm = blocks ATP-dependent breakdown of the yeast 26S proteasome; inhibition of disassembly, % (no concentration beside the values); AID 751; anti-FLAG beads, GFP-proteasome disassembly, flow cytometry; 24,000 compounds, 0.2% hits;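 active = above 40%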;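 note: plate controls were ATP control with full disassembly for no effect and ATP-gamma-S intact proteasomes for full effect; higher percent means more bead fluorescence retained so stronger block of disassembly; stock transfer was 100 nL into about 10 µL; wells with too few beads may also be inconclusive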
# * marks the source's active call; other numbers are inactive results; i = inactive; x = no result given.
# The first 7 compounds (preview)
canonical_smiles	VCAM-1 up	Proteasome disasm
CC(=O)c1ccc(NC(=O)C2CCCN2S(=O)(=O)c2cccc3cccnc23)cc1 (stereo unspecified)	x	-0.9
CCC(Sc1nc(=O)cc(N)n1CCc1ccccc1)C(=O)Nc1ccccc1C#N (stereo unspecified)	x	5.6
COc1ccc(OC)c(S(=O)(=O)Nc2ccc(O)c3ccccc23)c1	i	-0.3
O=S(=O)(NCc1cccnc1)c1cccc2nsnc12	i	0.4
O=C(CSc1nc2ccccc2o1)Nc1ccccc1	i	-0.8
CC1CCN(S(=O)(=O)c2cccc(C(=O)Nc3ccccn3)c2)CC1	i	-0.8
CCc1ccc(OC(=O)c2ccn(CC)n2)cc1	x	-1.2

# The listing, from the first entry:
canonical_smiles	VCAM-1 up	Proteasome disasm
CC(=O)c1ccc(NC(=O)C2CCCN2S(=O)(=O)c2cccc3cccnc23)cc1 (stereo unspecified)	x	-0.9
CCC(Sc1nc(=O)cc(N)n1CCc1ccccc1)C(=O)Nc1ccccc1C#N (stereo unspecified)	x	5.6
COc1ccc(OC)c(S(=O)(=O)Nc2ccc(O)c3ccccc23)c1	i	-0.3
O=S(=O)(NCc1cccnc1)c1cccc2nsnc12	i	0.4
O=C(CSc1nc2ccccc2o1)Nc1ccccc1	i	-0.8
CC1CCN(S(=O)(=O)c2cccc(C(=O)Nc3ccccn3)c2)CC1	i	-0.8
CCc1ccc(OC(=O)c2ccn(CC)n2)cc1	x	-1.2
CCOC(=O)C(CC)(CCC(=O)O)c1csc(N)n1 (stereo unspecified)	i	0.6
O=C(C1CCC(CNS(=O)(=O)c2cccc3cccnc23)CC1)N1CCCC1 (stereo unspecified)	i	-0.1
C=CCS/C(=N\n1cnc2ccccc2c1=O)N1CCCCC1	x	-1.2
CC(=O)Nc1ccc(S(=O)(=O)NCC2CCC(C(=O)NCCC(C)C)CC2)cc1 (stereo unspecified)	x	-1.2
S=c1[nH]nc(-c2ccc3ccccc3n2)o1	x	-1.1
CCOc1ccc(-c2nc(CSCC(=O)N3CCN(c4cccc(OC)c4)CC3)c(C)o2)cc1	x	2.0
COc1ccccc1N1CCN(C(=O)c2ccc3c(=O)n(Cc4ccco4)c(=S)[nH]c3c2)CC1	x	-0.7
CCOC(=O)c1ccc2nc3c(cc2c1)CCS3	x	1.3

# Going on with the list:
canonical_smiles	VCAM-1 up	Proteasome disasm
COc1cc(NC(=O)c2cc(-n3cnnc3)ccc2Cl)cc(OC)c1	i	1.8
CCOC(=O)CCc1c(C)c2c(C)nn(-c3ccccc3)c2[nH]c1=O	x	1.9
CCCOc1ccc(C2C(C(=O)OC)=CN(CCOC)C=C2C(=O)OC)cc1	i	-0.6
O=C1CCCN1CN(C(=O)c1ccc2c(c1)OCO2)c1cccc(Cl)c1	x	16
C=CCSc1n[nH]c(-c2ccc(OC)cc2)n1	i	0.2
CCOC(=O)c1nnn(-c2nc(OC)nc(N(C)C)n2)c1-c1ccccc1	x	-0.1
CC(C)CC(OC(=O)c1cccs1)C(=O)NCc1ccco1 (stereo unspecified)	i	0.0
COc1ccc(OCCN2C(=O)NC(C)(c3ccc(C)cc3)C2=O)cc1 (stereo unspecified)	i	-1.3
Cc1noc(C(=O)Nc2ccccc2C(F)(F)F)c1Cl	x	-2.3
COCCNC(=O)c1sc2ncn(CC(=O)N3CCCCC3)c(=O)c2c1C	x	-0.4
COc1ccc(S(=O)(=O)N2CCCN(Cc3cccc(F)c3)CC2)cc1	x	0.0
CC(NC(=O)OC1CCCCC1)N1C(=O)C2C3C=CC(C3)C2C1=O (stereo unspecified)	x	-0.2
CSc1nnc2c3ccccc3n(Cc3ccccc3)c2n1	i	-0.6
Cc1ccc(C)n1CCN1CCN(CC(=O)Nc2ccc(S(N)(=O)=O)cc2)CC1	x	-0.9
OC(COc1ccccc1)CN1C2=NCCCN2c2ccccc21 (stereo unspecified)	i	-1.0

# The list continues.
canonical_smiles	VCAM-1 up	Proteasome disasm
COC(=O)c1ccccc1NC(=O)C1CC(=O)N(c2ccccc2)C1 (stereo unspecified)	i	0.1
CCCCNC(=O)c1nc2ncc(Br)cn2n1	i	0.9
O=C(NCCCN1CCCCC1)C1CCC(=O)N1CCc1ccccc1 (stereo unspecified)	x	-2.1
CC1/C(=N/O)C(CN(C)C)C2CC1C2(C)C (stereo unspecified)	i	-2.0
CC(C)c1ccc(N(CC(=O)O)S(=O)(=O)c2cccnc2)cc1	x	-1.1
O=C1c2ccccc2S(=O)(=O)N1Cc1nnc(-c2ccccc2Br)o1	i	-1.3
COc1ccccc1N1CCN(c2cc(=O)n(-c3ccc(Br)cc3)c(=O)[nH]2)CC1	x	2.2
O=C1CC(C(=O)N2CCN(c3ccc(F)cc3)CC2)CN1CCc1ccccc1 (stereo unspecified)	x	-2.2
COCCNC(=O)c1c(N)n(CCC2=CCCCC2)c2nc3ccccc3nc12	i	11
Cc1ccc(C(=O)CC2(O)C(=O)N(CN3CCOCC3)c3ccccc32)cc1 (stereo unspecified)	i	0.9
CCOc1ccc(C2N(c3ccc(Cl)cc3)C(=O)C3CCCN32)cc1OC (stereo unspecified)	x	-1.1
CCCCS(=O)(=O)NC1=NCN(CCOC(=O)c2ccccc2)CN1	i	-2.8
COc1ccc(CCc2nc(-c3ccc(-n4cccc4)cc3)no2)cc1	x	0.8
COc1ccc(CCNC(=O)CSc2nnc(CNC(=O)c3ccccc3F)o2)cc1OC	x	-0.6
COc1ccc(CN2CC(C(=O)NCCC3=CCCCC3)CC2=O)cc1 (stereo unspecified)	x	0.7

# Random excerpt: two records from the list.
canonical_smiles	VCAM-1 up	Proteasome disasm
Cc1ccc(C(=O)CC2(O)C(=O)N(CN3CCOCC3)c3ccccc32)cc1 (stereo unspecified)	i	0.9
CC(C)c1ccc(N(CC(=O)O)S(=O)(=O)c2cccnc2)cc1	x	-1.1

# Later entries.
canonical_smiles	VCAM-1 up	Proteasome disasm
Cc1ccc(NC(=O)c2ccco2)c(NC(=O)c2cccs2)c1	i	-1.4
COC(=O)c1cc(-c2c(C)nn(-c3ccccc3)c2C)n[nH]1	i	-1.4
Cn1c(Cn2c(=O)sc3ccccc32)nnc1SCC(=O)NCc1ccccc1	x	-1.2
Cc1cc(NC(=O)c2cccc(S(=O)(=O)N3CC(c4ccccc4)CC3=O)c2)no1 (stereo unspecified)	i	0.3
O=C(c1cc2c(s1)-c1ccccc1OC2)N1CCCC1	x	0.3
O=C(c1ccc(CS(=O)(=O)c2c(Cl)cccc2Cl)o1)N1CCN(c2ccccn2)CC1	x	-0.5
COc1ccc(N(C)S(=O)(=O)c2c(C)[nH]c(=O)[nH]c2=O)cc1	x	0.8
CN(CC(=O)N1CCN(c2ccccc2)CC1)S(=O)(=O)c1cnc[nH]1	x	1.5
O=P(O)(CCc1ccccc1)CN1CCCCC1	i	1.4
C/C(=C\C(=O)c1ccc(F)cc1)Nc1ccc(N2CCOCC2)cc1	i	0.0
COc1cccc(-n2ccnc2SCC(=O)Nc2ccccc2)c1	x	-1.6
CN(C)CCCn1c(N)c(C#N)c2nc(C#N)c(C#N)nc21	i	-1.1
CCc1ccc(C2CC(c3cccc(Cl)c3)n3nc(N)nc3N2)cc1 (stereo unspecified)	x	5.4
C[C@]12C=CC(=O)C=C1CC[C@H]1[C@@H]3C[C@@H](O)[C@](O)(C(=O)CO)[C@@]3(C)C[C@H](O)[C@@]12F	i	0.1
O=C(Nc1ccccc1)C1=C(O)CC(c2ccco2)CC1=Nc1ccccc1 (stereo unspecified)	x	47*

# Next compounds follow:
canonical_smiles	VCAM-1 up	Proteasome disasm
COC(=O)C(Cc1ccccc1)NC(=O)CSc1nc(N)cc(=O)[nH]1 (stereo unspecified)	x	2.2
Cc1ncc(CO)c2cc(C(N)=O)c(=Nc3ccccc3)oc12	x	-1.9
COc1ccc(Cn2nnnc2CN2CCOCC2)cc1	i	0.3
O=C(CC1Oc2ccccc2NC1=O)NC1CC1 (stereo unspecified)	x	-1.7
Nc1nonc1-n1nnc(C(=O)c2ccccc2)c1-c1ccccc1	i	-1.2
CC(C)N(Cc1nc(-c2ccccc2)no1)C(=O)Cc1ccccc1	x	1.8
CCCCSCCCNC(=O)CS(=O)Cc1nc(-c2cccc(C)c2)oc1C (stereo unspecified)	i	0.8
Cc1ccccc1-n1c(Cn2c(=O)sc3ccccc32)nnc1SCC(=O)NCC1CCCO1 (stereo unspecified)	x	0.4
COC(=O)C1(C)NC(c2ccco2)C2C(=O)N(c3ccc(C)cc3)C(=O)C21 (stereo unspecified)	i	1.1
CC1CCN(C(=O)C2CCN(S(=O)(=O)c3cnc[nH]3)CC2)CC1	i	-1.0
Cc1sc2nc(SCC(=O)NCCO)n(C)c(=O)c2c1C	i	-0.8
CCCC(C)C(=O)Nc1ccc(C(N)=O)cc1 (stereo unspecified)	i	1.1
CCOC(=O)c1c(NC(=O)CSc2nc3c(c(=O)n(C)c(=O)n3C)n2C(C)C)sc(C)c1C	i	0.0
O=C(NCCCN1CCCC1=O)c1ccc2c(c1)ncn2C1CCCCC1	x	0.9
Nc1nnc(SCc2cc3c(cc2Cl)OCO3)s1	i	-1.0

# Next structures follow:
canonical_smiles	VCAM-1 up	Proteasome disasm
O=C(NCc1ccccn1)c1cnc2sccn2c1=O	x	-1.6
O=C(NC1CC1)c1c[nH]c2ccc(S(=O)(=O)Nc3cccc(C(F)(F)F)c3)cc2c1=O	x	-1.7
O=C(NCCC1=CCCCC1)C1CCN(S(=O)(=O)c2cnc[nH]2)CC1	i	0.5
COc1ccccc1NC(=O)N1CCN(c2ccccc2F)CC1	i	0.2
CC(C)CCNC(=O)CCNS(=O)(=O)c1ccc(Cl)cc1	i	-0.9
COc1cccc(C2C(C(=O)c3cccs3)=C(O)C(=O)N2CCCn2ccnc2)c1OC (stereo unspecified)	i	2.7
CCS(=O)(=O)NCC(c1cccnc1)N1CCN(c2ccc(F)cc2)CC1 (stereo unspecified)	x	-2.5
Cc1cc(C(=O)N2CCOCC2)n(-c2ccccc2)n1	x	0.9
Cc1ccc(NC(=O)c2cc(C)on2)cc1	x	1.0
COc1ccc(N2C(=O)CCC(C(=O)N3CCC(C(N)=O)CC3)C2c2ccc(F)cc2)cc1 (stereo unspecified)	x	-1.0
CC(C)(C)n1ncc2c(=O)n(CC(=O)N3CCc4ccccc43)cnc21	x	0.4
CCCN(CCC)CCNC(=O)c1cc2c(=O)n(C)c3ccccc3c2n1C	i	-0.8
CCOc1ccc2[nH]c(=O)c(CN(Cc3nnnn3CCc3ccccc3)CC3CCCO3)cc2c1 (stereo unspecified)	i	-2.5
CC1CCN(S(=O)(=O)c2ccc(Br)s2)CC1	i	0.7
COc1ccc(OC)c(Nc2nc(-c3cccs3)cs2)c1	i	0.7

# The list goes on.
# Value order: VCAM-1 up	Proteasome disasm
- CCOC(=O)NC(=O)CSc1nnc(C)s1
→ i	3.0
- CCOC(=O)c1ccc(NS(=O)(=O)c2cccc3nsnc23)cc1
→ i	-1.6
- CC(=O)Nc1nc(-c2ccccc2)nc(C)c1C(C)=O
→ i	2.9
- Cc1ccc(S(=O)(=O)NCC(=O)N(CC(=O)NC2CCCCC2)Cc2ccco2)cc1
→ i	0.2
- Clc1cccc2sc(N3CCCCC3)nc12
→ x	0.7
- O=C(CSc1nc2ccccc2c(=O)n1CC1CCCO1)NCC1CCCO1 (stereo unspecified)
→ x	-0.6
- O=c1c2cc(N3CCOCC3)ccc2[nH]c(=S)n1CCCN1CCN(c2ccccc2F)CC1
→ x	5.5
- CCN(CC)c1ccc(NC(=O)CN2CCN(CC(=O)Nc3ccc(F)cc3)CC2)cc1
→ x	0.6
- CCOC(=O)c1c(N)sc(C(=O)N2CCOCC2)c1C
→ 24	1.9
- CC(=O)c1ccc(NC(=O)c2noc3c2CCCCC3)cc1
→ i	-2.1

# With a hit mark in Proteasome disasm, of those listed so far:
# Value order: VCAM-1 up	Proteasome disasm
- O=C(Nc1ccccc1)C1=C(O)CC(c2ccco2)CC1=Nc1ccccc1 (stereo unspecified)
→ x	47*

# Further results follow:
# Value order: VCAM-1 up	Proteasome disasm
- CCOC(=O)C(NC(=O)CC)(Nc1ccc(S(=O)(=O)Nc2ncccn2)cc1)C(F)(F)F (stereo unspecified)
→ x	0.4
- CC(=O)c1cc(-c2ccc(F)cc2)n(CC(=O)NCc2cccs2)c1C
→ x	2.9
- CCCCC[C@H](O)/C=C/[C@@H]1[C@@H](CCCCCCC(=O)O)[C@@H](O)C[C@H]1O
→ i	-0.8
- COCCNC(=O)C(c1cccc(OC)c1)N(Cc1cccs1)C(=O)Cn1nnc2ccccc21 (stereo unspecified)
→ i	-0.2
- Cc1nc(/N=C(\N)Nc2ccccc2)nc2ccccc12
→ i	-3.1
- COc1ccccc1-c1c(C)nn2c(C)cc(C)nc12
→ x	4.1
- O=C(CC(CC(=O)c1ccccc1)C(=O)O)c1ccccc1
→ i	-0.6
- C[C@]12C[C@H](O)[C@H]3[C@@H](CCC4=CC(=O)CC[C@@]43C)[C@@H]1CC[C@@H]2C(=O)CO
→ i	-0.4
- Cc1occc1C(=O)Nc1ccccc1NC(=O)c1ccoc1C
→ i	0.3
- Cc1csc2nc(CNC(=O)c3ccco3)cn12
→ i	-0.8

# Continued:
# Value order: VCAM-1 up	Proteasome disasm
- c1cc(-c2nc3ccccc3o2)nc(-c2nc3ccccc3o2)c1
→ i	0.3
- O=C(Cn1ncc2c(=O)oc3ccccc3c21)N(Cc1ccco1)C1CCCCC1
→ x	-1.0
- COc1ccc(C(=O)NCCn2cc(SCC(=O)Nc3cc(C)on3)c3ccccc32)cc1OC
→ x	-0.5
- O=C(c1ccc(CSCc2ccccc2F)o1)N1CCN(c2ccc(N3CCOCC3)nn2)CC1
→ i	1.1
- c1cc(-c2nc3cc(Oc4ccc5oc(-c6ccncc6)nc5c4)ccc3o2)ccn1
→ x	0.9
- COc1cccc(C2CC(c3cccc(OC)c3)n3nc(N)nc3N2)c1 (stereo unspecified)
→ x	1.2
- CCOc1ccc(CCNC(=O)C(CC)n2nc(C)n3c(cc4sccc43)c2=O)cc1OCC (stereo unspecified)
→ x	0.9

# These rows are one share of the data (hit frequency here may not be typical).
